VACV mCherry inh = vaccinia inhibition (mCherry reporter) | AID 720579 | 310,000 tested, 0.63% active | Vaccinia virus mCherry reporter infection, fluorescence; about a quarter of the inactives have no number | Potency, µM (titrated, usually from 36.5 µM), inactives show top-dose activity change, negative = inhibition, actives largely listed as inhibitors; active = well fitted inhibition curve with a large enough effect; inconclusive = small, poorly fitted or top-dose-only effect; inactive = no such curve, though single readings can be large or run the other way; tested in A549 cells; note: nearly all actives have a fitted effect of over 35% in size; inactives centre near -10
VACV Venus inh = inhibitors of vaccinia virus (Venus reporter); Vaccinia virus Venus reporter expression, fluorescence; Potency, µM (top dose mostly 36.5 µM), for the others: top-dose activity change, negative = inhibition, usual class: inhibitors; 330,000 tested, 0.46% active; active means well fitted inhibition curve with a large enough effect; inconclusive means small, poorly fitted or top-dose-only effect; inactive means no such curve, though single readings can be large or run the other way; tested in A549 cells; note: nearly all actives have a fitted effect of over 30% in size; inactives centre near -10
Numbers without * were called inactive; i = inactive; ? = inconclusive; . = not tested or not shown; [ ] = remark or other dose. % is set by controls: 0 for no effect and ±100 for the full control effect; potency is the fitted concentration of half-maximal effect.

The line under a structure holds: VACV mCherry inh | VACV Venus inh
CCCCn1c(N)c(N(CCC(C)C)C(=O)c2ccc([N+](=O)[O-])s2)c(=O)[nH]c1=O
  ? | ?
CCCCn1c2c(cc(C(=O)OC)c1=O)C(=O)CCC2
  -9% | -8%
COc1cccc(CNC(=O)C(CCSC)NS(=O)(=O)c2ccc3c(c2)oc(=O)n3C)c1 (stereo not drawn)
  . | 8%
CC(C)Oc1ccc(CNC(=O)CN2C(=O)c3cccnc3Oc3ccc(Cl)cc32)cc1
  -4% | 6%
COc1cc(/C=C(\C#N)C(=O)NCc2ccccc2)ccc1OCc1ccc(C(=O)O)cc1
  -3% | 0%
O=C(NCc1ccc(F)cc1)Nc1ccc(Cl)cc1
  -28% | 0%
CC(C)(C)c1cc(C(C)(C)C)n(-c2ccccc2)n1
  -15% | -10%
CN(CC(=O)N1CCN(Cc2ccccc2)CC1)C(=O)Cc1ccc(Cl)c(Cl)c1
  ? | -8%
O=C(N/N=C/c1c[nH]c2ccc(Br)cc12)c1ccc2c(c1)OCO2
  -28% | -27%
CCOc1ccc(N2CC(NC(=O)CCc3ccccc3)CC2=O)cc1 (stereo not drawn)
  -10% | -14%
CCOC(=O)CSc1nc2c(c(=O)n(Cc3ccccc3Cl)c(=O)n2C)n1C
  -18% | -4%
O=C(NCCc1nc(-c2ccccc2)no1)c1ccco1
  ? | -6%
Cc1cccc(N(C(=O)c2ccc(CN3CCOCC3)o2)C(C(=O)NC(C)(C)C)c2ccc(F)cc2)c1 (stereo not drawn)
  -16%[1.46 µM] | -3%
COc1ccc(NC(=O)Cn2c(=O)n(CC3CCCO3)c(=O)c3cc(OC)c(OC)cc32)cc1OC (stereo not drawn)
  -11% | -19%
COC(=O)c1c(C(C)=O)c(C)n(C)c1C
  -3% | 0%
CCN(Cc1nc2cc(Cl)ccc2c(=O)[nH]1)C(=O)CN1C(=O)NC2(CCCCC2C)C1=O (stereo not drawn)
  -15% | -10%
Cc1ccc2nc(C3CCN(C(=O)NCc4ccccc4)CC3)[nH]c2c1
  -24% | -13%
Nc1cc(OCC(F)(F)F)cc([N+](=O)[O-])c1
  -5% | -3%
CCC/C(=N/NC(=O)c1nnn(-c2nonc2N)c1CN1CCCCC1)c1ccccc1
  74%[activator] | 86%[activator]
Cn1cccc1C1Nc2ccccc2NC2=C1C(=O)CC(C)(C)C2 (stereo not drawn)
  -15%[1.46 µM] | -15%
Cn1cc(C(=O)C(F)(F)F)c2ccccc21
  . | 15%
Cc1ccc(-n2nc(C(=O)N3CCN(c4cc(Cl)ccc4C)CC3)c3c4ccccc4n(C)c3c2=O)cc1
  -1% | 0%
COc1cc(OC)cc(C(=O)N2CCC(c3ccncc3)CC2)c1
  -15% | -20%
CC(C)(C)Cc1c(-c2ccc(F)cc2)nc2ccc(Cl)cn12
  -7% | -22%
CC(C)OC(=O)Nc1ccc2c(c1)N(C(=O)N1CCN(C)CC1)c1ccccc1CC2
  i[7.34 µM] | -12%[7.34 µM]
CCOC(=O)c1cc(-c2ccccc2)n(-c2cccc(C(=O)Nc3ccc(F)c(F)c3)c2)c1C
  -23% | -14%
Nn1c(Cc2ccccc2)nc2sc3c(c2c1=O)CCC3
  3% | 4%
CCO[C@H]1OC(C(=O)N2CCN(Cc3ccccc3)CC2)=C[C@@H](c2ccc(C(F)(F)F)cc2)[C@@H]1CCCO
  i | ?
Cc1ccc2nc(N3CCN(C(=O)c4ccccc4F)CC3)c(C#N)cc2c1
  -3% | -11%
Cc1ccc(CN2C3=NC(=O)CN3c3ccccc32)cc1
  4% | 6%
Cc1cccc(N(C)C(=O)c2cc3c(=O)oc4ccc(C)cc4c3s2)c1
  2% | -3%
O=C1C(=O)N(Cc2cccs2)c2ccccc21
  -12% | -2%
O=C(NCc1nc2ccccc2[nH]1)c1cc2ccccc2oc1=O
  i | -8%
CCOC(=O)c1c(NC(=S)Nc2ccc(OC)cc2)sc2c1CCC2
  i | -8%
O=C(Nc1ccc2c(c1)OCO2)C(c1ccccc1)N1CCC2(CC1)OCCO2 (stereo not drawn)
  i | -7%
CC(C)(C)Nc1nc(Cl)nc(N(C#N)CN2C(=O)c3ccccc3S2(=O)=O)n1
  -1% | -22%
O=C(Nc1ccccc1)Nc1cccc2nsnc12
  -2% | -20%
Cc1ccc(NC(=O)Nc2nnc([C@@H]3C[C@H](O)[C@@H](CO)O3)s2)cc1
  34%[activator] | 3%
Cc1cc(C)cc(N(CC(=O)O)S(=O)(=O)c2c(C)noc2C)c1
  i | -6%
CCN(C(=O)CCS(=O)(=O)c1ccc2c(c1)CCN2C(C)=O)c1cccc(C(F)(F)F)c1
  7% | 7%
CCc1ccc2c(CN3CC=C(c4ccccc4)CC3)cc(=O)oc2c1
  -6% | 2%
CC(=O)Nc1ccc(S(=O)(=O)n2cnc(C)c2)cc1
  . | -13%
O=C(Nc1cccc(Cl)c1)c1nc[nH]c1C(=O)N1CCc2ccccc2C1
  i | -13%
Cc1cccc(N2CC(c3nc4ccccc4n3C)CC2=O)c1C (stereo not drawn)
  i | -20%
O=C(Nc1cccc(Cl)c1)OCCOCCOC(=O)Nc1cccc(Cl)c1
  -13% | 4%
CN(C)C(=O)CCSc1nnc(-c2ccco2)o1
  -17% | -5%
Cc1cccc(C)c1NC(=O)CSc1nnc(-c2cnccn2)n1C
  -29% | -10%
COC(=O)c1ccc(C)c(NC(=O)CN2C(=O)c3ccccc3S2(=O)=O)c1
  . | 1%
COc1cc(/C=C2\SC(=S)N(CC(=O)Nc3ccccn3)C2=O)cc(OC)c1OC
  -21% | -5%
CCNC(=O)N(C)C[C@H]1N[C@@](CC)(C(=O)OC)[C@H]2C(=O)N(Cc3ccccc3)C(=O)[C@@H]12
  i | -8%
Cc1ccc(-c2cc(-c3ccccc3Cl)c(C#N)c(N)n2)o1
  -13% | 3%
CC[C@@H]1CC2=C(C(=O)OC(C)(C)O2)[C@@H](CC)O1
  -9% | 2%
CCC(C)NC(=O)CCCn1c(=O)c2cccn2c2ccccc21 (stereo not drawn)
  -2% | 17%
Cc1ccc(CN2C(=O)c3ccccc3NC23CCN(Cc2ccccc2)CC3)cc1
  -12% | -8%
CC(=O)Nc1ccccc1P(=O)(c1ccccc1)c1ccccc1OC(C)=O (stereo not drawn)
  -17% | -7%
COc1ccc(NC(=O)/C=C/c2cccc(C(F)(F)F)c2)cn1
  ? | -22%
CCCCC(OC(=O)CN1C(=O)COc2ccccc21)C(=O)NC1CCCCC1 (stereo not drawn)
  ? | 5%
Cc1ccc(-c2nc(CS(=O)CC(=O)NCCCN3CC(C)CC(C)C3)c(C)o2)cc1 (stereo not drawn)
  -20% | ?
O=C(NCc1ccc(F)cc1)C(=O)NCC(c1ccco1)S(=O)(=O)c1cccs1 (stereo not drawn)
  -18% | -4%
CC(=O)N1CCCc2cc(S(=O)(=O)N(C)CC(=O)Nc3ccc(C(C)C)cc3)ccc21
  -20% | -18%

In the list so far, 2 contain a COOH group.
The line under a structure holds: VACV mCherry inh | VACV Venus inh
COc1cc(/C=C(\C#N)C(=O)NCc2ccccc2)ccc1OCc1ccc(C(=O)O)cc1
  -3% | 0%
Cc1cc(C)cc(N(CC(=O)O)S(=O)(=O)c2c(C)noc2C)c1
  i | -6%

(continued)
The line under a structure holds: VACV mCherry inh | VACV Venus inh
O=C1C(=C2CCCCC2)SC(=S)N1Cc1ccco1
  -14% | 0%
O=S1(=O)N(CCN2CC=C(c3c[nH]c4cc(F)ccc34)CC2)c2cccc3c2N1CCC3
  i | -12%
Cc1nc2sccn2c(=O)c1S(=O)(=O)NCC1CCN(Cc2ccc(Cl)cc2)CC1
  -8% | -25%
COC(=O)C1=CN(Cc2ccc(OC)cc2)C=C(C(=O)OC)C1c1ccsc1
  -8% | -3%
O=C(O)c1ccccc1NS(=O)(=O)c1ccc(NNC(=S)Nc2ccc(OC(F)F)cc2)c([N+](=O)[O-])c1
  i | -22%
CCN(CC)CCOc1cc2c(nn1)Oc1ccccc1N2C
  -19% | -8%
Cc1ccc(S(=O)(=O)N(CC(=O)NCc2ccccc2)C(=O)N2CCN(C)CC2)cc1
  -13% | 2%
CCCCn1nc(C(=O)Nc2ccc3c(c2)OCO3)c2ccccc2c1=O
  -14% | -2%
CC(=O)/C(=N/Nc1cccc(Cl)c1)Sc1nnc(C(O)c2ccccc2)n1-c1ccccc1 (stereo not drawn)
  -9% | -6%
CCN1C(=O)[C@@H]2[C@@H]3CN(S(=O)(=O)c4ccccc4C)[C@@H](c4ccc(Cl)cc4)[C@@H]3C(=O)C[C@@H]2C1=O
  19% | -13%
CCCCCC(N)=O
  -10% | -4%
Cc1ccc(CN2CCOc3ccc(C(C)(O)COc4ccccc4)cc3C2)o1 (stereo not drawn)
  -9% | 7%
O=C(O)c1cccc(Nc2nc(-c3cccnc3)nc3ccccc23)c1
  i | -8%
COc1cc(C(=O)Nc2ccc3nc(SCc4ccccc4)sc3c2)cc(OC)c1OC
  -24% | -26%
CCOC(=O)c1c(NC(=O)CSc2nnc(-c3ccco3)o2)sc(C(C)=O)c1C
  . | -18%
Cc1cc(C(=O)COC(=O)C2=COCCO2)c(C)n1-c1ccccc1
  -2% | -9%
Cc1cccc(C)c1N1C(=O)c2ccccc2NC(=O)C1C(=O)NCCc1ccccc1 (stereo not drawn)
  -4% | 0%
C=CC[C@H](CC(=O)N[C@H](CO)Cc1ccccc1)C(=O)N[C@H](COC(=O)[C@H](CC=C)CC(=O)OC(C)(C)C)Cc1c[nH]c2ccccc12
  -1% | ?
Cc1ccc(N2CC(NC(=O)Cc3cccs3)CC2=O)cc1C (stereo not drawn)
  -2%[7.34 µM] | -4%[7.34 µM]
Cc1ccc2c(c1)-c1c(c(C(=O)N3CCN(c4cc(C)ccc4C)CC3)nn1C)CS2
  15%[7.34 µM] | 429%[activator][7.34 µM]
CCCCCN(C(=O)COC(=O)c1ccc(Br)o1)c1c(N)n(CCCC)c(=O)[nH]c1=O
  -15% | 0%
COc1cc2c(cc1OC)[C@@H](NC(=O)CCC1CCCCC1)[C@H](O)C2
  -6% | -1%
CCN(C(=O)COC(=O)c1ccc(OC)c(S(=O)(=O)N(C)Cc2ccccc2)c1)C1CCS(=O)(=O)C1 (stereo not drawn)
  -16% | -15%
CCCn1c(SCC(=O)Nc2ccc(OC)cc2[N+](=O)[O-])n[nH]c1=O
  -1% | -6%
Cc1ccc2nc(N3CC(=O)Nc4ccccc43)nc(-c3ccccc3)c2c1
  i | -9%
COC(=O)C1=C(c2ccc3ccccc3c2)C[C@@H]2CC[C@H]1N2C(=O)N1CCCCC1
  -15% | ?
Cc1ccc2c(=O)cc(C(=O)Nc3ccc(S(=O)(=O)Nc4nc(C)cc(C)n4)cc3)oc2c1
  -13% | -1%
CC1=C(C(=O)Nc2ccccc2)C(c2ccco2)n2ncnc2N1 (stereo not drawn)
  -6% | -6%
CC(C)c1ccc(NC(=O)Cn2cccc2C2=NC(c3ccccc3)CO2)cc1 (stereo not drawn)
  -1% | -23%
CCCNC(=O)C1(C)CCN(Cc2cccc(OC(=O)c3ccccc3)c2)C1 (stereo not drawn)
  9% | -1%

Some of these compounds in order of number of heavy atoms, high to low:
The line under a structure holds: VACV mCherry inh | VACV Venus inh
C=CC[C@H](CC(=O)N[C@H](CO)Cc1ccccc1)C(=O)N[C@H](COC(=O)[C@H](CC=C)CC(=O)OC(C)(C)C)Cc1c[nH]c2ccccc12
  -1% | ?
CC(C)c1ccc(NC(=O)Cn2cccc2C2=NC(c3ccccc3)CO2)cc1 (stereo not drawn)
  -1% | -23%
COC(=O)C1=CN(Cc2ccc(OC)cc2)C=C(C(=O)OC)C1c1ccsc1
  -8% | -3%
COc1cc2c(cc1OC)[C@@H](NC(=O)CCC1CCCCC1)[C@H](O)C2
  -6% | -1%

Additional records:
The line under a structure holds: VACV mCherry inh | VACV Venus inh
O=C(N[C@@H](Cc1ccccc1)C(=O)N1CCN(S(=O)(=O)c2ccccc2F)CC1)c1ccco1
  -16% | -10%
COc1ccc(N/C(C)=C/C(=S)Nc2ccccc2)cc1
  -4% | -16%
Cc1csc(SCC(=O)Nc2cc(C(N)=O)cc(C(N)=O)c2)n1
  i | -10%
Cc1ccc(/C=C/C(=O)NCc2ccc(S(N)(=O)=O)cc2)o1
  -7% | -7%
COC(=O)CSc1nc(-c2ccccc2)c2c(c1C#N)CCCC2
  -2% | -6%
CC1(c2ccc3c(c2)OCO3)NC(=O)N(CC(=O)Nc2ccccc2[N+](=O)[O-])C1=O (stereo not drawn)
  i | -13%
COc1ccc(CCNC(=O)c2ccc3c(c2)N(Cc2cccc(Cl)c2)C(=O)CS3)cc1OC
  ? | ?
CCOc1cc(/C=C/c2nc3ccccc3s2)ccc1OCC(=O)N1CCOCC1
  ? | -26%
CCOC(=O)[C@]12CCCC=C1N(CCC1=CCCCC1)C(=O)[C@H](CC(=O)NCc1cccc(C(F)(F)F)c1)C2
  ? | ?
CC(NC(=O)CCCn1cc([N+](=O)[O-])cn1)c1ccccc1 (stereo not drawn)
  -7% | -17%
Cc1ccc(-n2c(=O)c3c(C)c(C(=O)N(C)C)sc3n(CC(=O)C(C)(C)C)c2=O)cc1C
  -10% | -2%
O=S(=O)(c1cccc(Cn2nnc(-c3ccc(F)cc3)n2)c1)N1CCOCC1
  -20% | -12%
CC(C)CC(OC(=O)c1nsc(Cl)c1Cl)C(=O)NC1CCCC1 (stereo not drawn)
  0% | -10%
CCS(=O)(=O)CCSC1OC(COC(C)=O)C(OC(C)=O)C(OC(C)=O)C1OC(C)=O (stereo not drawn)
  i | -2%

Assay outcomes deposited in PubChem BioAssay by National Center for Advancing Translational Sciences (NCATS).

Random draw from the library; about 0.87% have a hit in one of these screens.
